Screens deposited in PubChem by several laboratories.
Sa RN4220 lethal = S. aureus RN4220 growth inhibition; OD600, 16 h; inhibition, % (no concentration beside the values); 330,000 tested, 0.33% active; AID 1259311;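 active = z-score of -3 or lower and OD600 up to 0.18 on both plates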;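 note: plate controls were untreated cells for no effect and reference antibiotic for full effect; stock transfer was 100 nL into about 80 µL; one replicate is shown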
BJeLR viability = kills HRASV12-expressing BJeLR cells; inhibition, % (concentration not given with the values); 300,000 tested, 0.17% active; BJeLR (HRASV12) viability, CellTiter-Glo ATP luminescence, 48 h; reference of the scale not given here;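 active = replicate mean above 50%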;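 note: 50 nL library stock added to about 25 µL; numbers are from one replicate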
Mtb hypoxia rep = Mtb hypoxia fluorescent reporter inhibition; fluorescence inhibition, % (no concentration beside the values); 300,000 tested, 0.1% active; M. tuberculosis hypoxia-regulated fluorescent reporter, fluorescence; AID 1159583;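 active = 35 to 45% if threefold the growth effect, above 45% if 1.5-fold the growth effect; inactive = the rest, general growth blockers included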;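 note: wells of about 50 µL received 100 nL stock; 0% = vehicle wells and 100% = reference inhibitor wells; whole bacteria with a GFP reporter of the hypoxia response; strong numbers were not always called active; many hits fall short of the cut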
PrP 5UTR inh = inhibition of PrP 5' UTR reporter expression; cell-based PrP 5' UTR mRNA reporter, plate reader; inhibition, % (no concentration beside the values); 340,000 tested, 0.35% active;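 active = every replicate at 50% or more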;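 note: 0 = median of the neutral control wells; tested in H4 reporter cells; numbers are from one replicate; inactives centre near -14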
ugtP null kill = growth inhibition of S. aureus ugtP deletion strain; S. aureus RN4220 ugtP deletion, OD600 growth, 16 h; some inactives read as strong as hits; growth inhibition, % (concentration not given with the values); 330,000 tested, 0.54% active; AID 1259309;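 active = z-score under -3 and OD600 up to 0.15 on both plates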;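 note: plate controls were untreated wells for no effect and antibiotic for full effect; wells of about 80 µL received 100 nL stock; the first replicate is given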
Autofluor counter = compound fluorescence in toxin protease inhibitor counterscreen; compound autofluorescence counterscreen, microsphere flow cytometry; active compounds read high; fluorescence intensity (concentration not given with the values); 360,000 tested, 3.1% active; AID 624483;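 active = at least 3 SD above the mean of all compounds, about 16000 in these data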;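 note: 100 nL of 1 mM stock went into each well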
Mtb hypoxia rep growth = further read-out of Mtb hypoxia rep, marked with its call; growth inhibition, %; measured here: M. tuberculosis growth (absorbance);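 0% = vehicle and 100% = reference antibiotic; read after six days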
An asterisk follows results filed as active; . = not tested or not shown; & = joins results of further samples.

smiles | Sa RN4220 lethal | BJeLR viability | Mtb hypoxia rep | Mtb hypoxia rep growth | PrP 5UTR inh | ugtP null kill | Autofluor counter
O=C(O)CNC(=O)c1ccccc1 | 8.8 | 1.9 | 8.4 | 3.1 | -8.3 | -0.5 | 5808
CC12CCC(=O)C=C1CCC1C2CCC2(C)C1CC[C@]2(O)C(=O)CO (stereo not given in full) | -0.1 | -0.4 | -3.8 | 9.2 | -9.4 | 2.7 | 6146
CCCCOc1ccc(CC(=O)NO)cc1 | 8.2 | -6.3 | 10.1 | 6.3 | -12.2 | 7.2 | 5976
CCOC(=O)NNc1nncc2ccccc12 | 9.7 | . | 11.8 | 4.9 | -6.4 | 3.2 | 5560
Cc1ccsc1C=CC1=NCCCN1C | 1.8&7.9 | . | 0.6&8.6 | -5.2&2.2 | . | -5.1&2.2 | .
CCCCCC(=O)O[C@]1(C(C)=O)CCC2C3CCC4=CC(=O)CC[C@]4(C)C3CC[C@@]21C (stereo not given in full) | -2.3 | . | 0.4 | 3.1 | . | -17.2 | .
COc1c(O)cc2c(c1O)[C@@H]1O[C@H](CO)[C@@H](O)[C@H](O)C1OC2=O (stereo not given in full) | -0.2 | 3.6 | . | . | -7.8 | 3.0 | 5922
O=C(O)/C=C/c1ccc(O)cc1 | . | 2.1 | . | . | -21.5 | . | 5646
COc1cc([C@H]2Oc3cc([C@H]4Oc5cc(O)cc(O)c5C(=O)[C@@H]4O)ccc3O[C@@H]2CO)ccc1O | . | 2.2 | . | . | 1.7 | . | 6149
COC(=O)C1=CO[C@@H](OC2OC(CO)C(O)C(O)C2O)[C@@H]2[C@@H](C)[C@@H](O)C[C@H]12 (stereo not given in full) | 1.0 | -13.8 | . | . | -3.4 | 0.1 | 5766
CNc1c2c(nn1C)CCCC2 | 2.7&0.7 | 13.3&5.2 | 12.9&6.8 | 10.5&16.6 | -13.4&4.3 | -3.2&3.2 | 3606&5434
COc1ccc(/C=N/NC(=O)c2ccncc2)cc1OC | . | 12.1 | . | . | 2.1 | . | 4200
CC(=O)N1CC(O)CC1C(=O)O (stereo not given) | 5.7 | . | 6.8 | 1.7 | . | -3.4 | .
CN(C)CCOc1ccccc1Cc1ccccc1 | 3.2 | -6.9 | 10.6 | 9.1 | -10.1 | 1.3 | 5235
CCn1cc(C(=O)O)c(=O)c2cc(F)c(N3CCNCC3)nc21 | 97.6* | . | . | . | -12.8 | 97.4* | 6008
COc1ccc2nc(NC(=O)Nc3ccccc3)sc2c1 | 1.1 | -2.9 | -0.8 | -0.2 | -25.6 | -25.2 | 6509

One compound at a time (already shown).
`COC(=O)C1=CO[C@@H](OC2OC(CO)C(O)C(O)C2O)[C@@H]2[C@@H](C)[C@@H](O)C[C@H]12` (stereo not given in full) reads Sa RN4220 lethal: 1.0; BJeLR viability: -13.8; Mtb hypoxia rep: .; Mtb hypoxia rep growth: .; PrP 5UTR inh: -3.4; ugtP null kill: 0.1; Autofluor counter: 5766
`CNc1c2c(nn1C)CCCC2` reads Sa RN4220 lethal: 2.7&0.7; BJeLR viability: 13.3&5.2; Mtb hypoxia rep: 12.9&6.8; Mtb hypoxia rep growth: 10.5&16.6; PrP 5UTR inh: -13.4&4.3; ugtP null kill: -3.2&3.2; Autofluor counter: 3606&5434
`COc1cc([C@H]2Oc3cc([C@H]4Oc5cc(O)cc(O)c5C(=O)[C@@H]4O)ccc3O[C@@H]2CO)ccc1O` reads Sa RN4220 lethal: .; BJeLR viability: 2.2; Mtb hypoxia rep: .; Mtb hypoxia rep growth: .; PrP 5UTR inh: 1.7; ugtP null kill: .; Autofluor counter: 6149

The main list resumes, starting 6 compounds before the break.
smiles | Sa RN4220 lethal | BJeLR viability | Mtb hypoxia rep | Mtb hypoxia rep growth | PrP 5UTR inh | ugtP null kill | Autofluor counter
CNc1c2c(nn1C)CCCC2 | 2.7&0.7 | 13.3&5.2 | 12.9&6.8 | 10.5&16.6 | -13.4&4.3 | -3.2&3.2 | 3606&5434
COc1ccc(/C=N/NC(=O)c2ccncc2)cc1OC | . | 12.1 | . | . | 2.1 | . | 4200
CC(=O)N1CC(O)CC1C(=O)O (stereo not given) | 5.7 | . | 6.8 | 1.7 | . | -3.4 | .
CN(C)CCOc1ccccc1Cc1ccccc1 | 3.2 | -6.9 | 10.6 | 9.1 | -10.1 | 1.3 | 5235
CCn1cc(C(=O)O)c(=O)c2cc(F)c(N3CCNCC3)nc21 | 97.6* | . | . | . | -12.8 | 97.4* | 6008
COc1ccc2nc(NC(=O)Nc3ccccc3)sc2c1 | 1.1 | -2.9 | -0.8 | -0.2 | -25.6 | -25.2 | 6509
O=c1cc(-c2ccc(O)cc2)oc2cc(O[C@@H]3O[C@H](CO)[C@@H](O)[C@H](O)[C@H]3O[C@@H]3OC[C@](O)(CO)[C@H]3O)cc(O)c12 | . | -1.0 | . | . | -6.4 | . | 3926
COc1cc2nc(N3CCN(C(=O)[C@H]4COc5ccccc5O4)CC3)nc(N)c2cc1OC | . | -6.0 | . | . | -11.8 | . | 5914
Cc1cccc(C)c1NC(=O)C1CCCCN1C (stereo not given) | 0.4 | -3.9 | 1.8 | 1.2 | 0.1 | -0.8 | 5795
C=C1c2cccc(O)c2C(O)=C2C(=O)[C@]3(O)C(O)=C(C(N)=O)C(=O)[C@@H](N(C)C)[C@@H]3[C@@H](O)[C@H]12 | 99.5* | -3.2 | . | . | 4.1 | 99.3* | 4992
Cn1c(=O)c2c(ncn2CCO)n(C)c1=O | -1.6 | -3.9 | -5.7 | 7.2 | -22.8 | -2.2 | 6122
CCCOC(=O)c1ccc(O)cc1 | 9.1 | -8.7 | . | . | -21.1 | -1.0 | 5184
CC(=O)Nc1ccccc1 | 4.9 | . | 2.3 | 4.9 | 1.3 | -3.6 | 5901
CC=C(C)C(=O)OC1c2cc3c(c4c2[C@@]2(CO4)C(=O)C(OC)=C(OC)C=C2CC(C)C1C)OCO3 (stereo not given in full) | 8.7 | . | 3.2 | 6.7 | . | -7.6 | .
Cc1[nH]c2ccccc2c1/C=N/NC(N)=S | . | 13.6 | . | . | -5.4 | . | 5775
COc1ccc(/C=C/C(=O)O)cc1 | 1.6 | . | . | . | -6.5 | 5.5 | 5631
NNC(=O)CP(=O)(c1ccccc1)c1ccccc1 | 6.6 | 6.5 | -3.3 | 2.2 | 9.8 | -0.7 | 4387
NC(N)=NC(=O)Cc1c(Cl)cccc1Cl | -5.7 | 5.2 | 4.4 | -4.8 | 6.9 | -5.5 | 4248
COc1ccc(CN2CCN(C(c3ccc(F)cc3)c3ccc(F)cc3)CC2)c(OC)c1OC | -6.6 | 12.0 | -7.6 | 2.6 | -1.6 | 0.1 | 5994
O=C(Nc1ccc(C(=O)O)c(O)c1)c1ccccc1 | 2.3 | 9.1 | 10.1 | 13.3 | . | 3.2 | 2819
CC(=O)O[C@]1(C(C)=O)CCC2C3C=C(Cl)C4=CC(=O)C5CC5[C@]4(C)C3CC[C@@]21C (stereo not given in full) | 6.0 | . | -2.4 | 0.8 | . | -1.7 | .
COC(c1ccccc1)(c1ccccc1)C(Oc1nc(C)cc(C)n1)C(=O)O (stereo not given) | -1.8 | -0.1 | 11.8 | 6.6 | -42.6 | 8.6 | 3283

The list is partial; count on the stated rates, not on these rows.
